RecA intein inh: blocks M. tuberculosis RecA intein splicing; P9WHJ3; cell-free RecA intein splicing, fluorescence; inhibition, %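 (about 9 µM by stock and volumes)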; 290,000 tested, 0.75% active; in the data active = inhibition above about 30%; inconclusive = no clear call, values can overlap the other calls;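 note: 0% = vehicle wells and 100% = reference inhibitor control wells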
Target sequence (P9WHJ3 whole entry, looked up): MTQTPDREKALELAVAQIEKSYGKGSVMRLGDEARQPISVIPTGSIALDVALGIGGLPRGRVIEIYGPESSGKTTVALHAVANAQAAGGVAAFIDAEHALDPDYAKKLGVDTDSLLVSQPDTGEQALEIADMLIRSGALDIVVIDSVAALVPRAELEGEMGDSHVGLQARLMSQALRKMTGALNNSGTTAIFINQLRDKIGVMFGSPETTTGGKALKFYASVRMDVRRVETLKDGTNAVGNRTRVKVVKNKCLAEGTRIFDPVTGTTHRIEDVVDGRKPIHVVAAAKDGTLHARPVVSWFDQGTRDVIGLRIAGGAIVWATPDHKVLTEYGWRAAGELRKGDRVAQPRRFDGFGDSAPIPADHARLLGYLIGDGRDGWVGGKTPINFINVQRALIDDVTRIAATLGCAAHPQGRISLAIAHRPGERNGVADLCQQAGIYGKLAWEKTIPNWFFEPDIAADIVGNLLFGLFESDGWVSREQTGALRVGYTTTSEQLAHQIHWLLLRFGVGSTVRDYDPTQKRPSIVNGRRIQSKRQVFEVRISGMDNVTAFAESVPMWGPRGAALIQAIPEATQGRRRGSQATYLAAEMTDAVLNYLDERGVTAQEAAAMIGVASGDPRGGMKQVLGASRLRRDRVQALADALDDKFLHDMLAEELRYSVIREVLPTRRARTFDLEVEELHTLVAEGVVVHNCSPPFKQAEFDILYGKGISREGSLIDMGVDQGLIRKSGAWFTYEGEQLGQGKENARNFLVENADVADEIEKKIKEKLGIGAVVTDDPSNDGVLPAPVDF
YopH inh: inhibitors of Yersinia enterocolitica YopH tyrosine phosphatase. fluorescence Ex485/Em525. inhibition, %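 (about 10 µM by stock and volumes)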. 140,000 tested, 0.16% active;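 active = inhibition of 50% or more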;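 note: controls were vehicle for no effect and minimum signal wells for full effect; inactives centre near -20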
Mtb H37Rv: M. tuberculosis H37Rv growth inhibitors, H37Rv strain (AID 1626). M. tuberculosis H37Rv growth inhibition; higher % means a stronger effect. one-dose inhibition, % at 10 µM; IC50 in µM for titrated hits. 220,000 tested, 0.95% active;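 active = confirmed in a dose series; inconclusive = inhibition above 80% but not taken into the dose series; inactive = below 80% or under 30% at every dose of the series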;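 note: bacteria incubated seven days before Alamar blue readout; 0% = bacteria only wells and 100% = bacteria with antibiotic wells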
Arbovirus inh: antivirals against arbovirus infection; arbovirus infection cell-based antiviral screen; inhibition, % at 10 µM; 200,000 tested, 0.37% active; AID 1251;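 active = inhibition from about 30%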;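 note: bluetongue infection of BSR cells; cell survival read as ATP light after 72 h; 0% = infected wells without compound and 100% = uninfected wells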
Mtb bLac sens: beta-lactam sensitization of Mtb H37Rv; inhibition, % at 25 µM; 330,000 tested, 0.27% active; M. tuberculosis H37Rv growth with meropenem, percent inhibition; hits of this screen are not shown here;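 active = about 74% or more and at least 40 points above the plate without the antibiotic, then above 30% in a dose series; inconclusive = first-round hits that could not be retested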;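 note: growth measured after seven days incubation then overnight dye step; 0% = bacteria only wells and 100% = bacteria with antibiotic; twin plates without the antibiotic show which effects depend on it; some results filed as inactive read as strong as hits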
Arbovirus inh repeat: further read-out of Arbovirus inh, marked with its call; inhibition, %; measured here: 10K subset replicate screen; many hits read low in the repeat;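 first of two repeat runs on a subset; 0% = infected and 100% = uninfected wells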
The depositor's hits bear a star; ? = inconclusive; . = not tested or not shown. Only part of the results is shown; count on the stated rates, not on these rows.

The first five compounds (preview)
SMILES | RecA intein inh | YopH inh | Mtb H37Rv | Arbovirus inh | Mtb bLac sens | others
Cc1nc(NCC2CC2)c2nnn(Cc3ccccc3)c2n1 | 0.7 | . | -1% | -8 | -5
Cc1csc(SCc2ccc(C(=O)O)cc2)n1 | -0.5 | -6 | 3% | -2 | -13
CCOc1ccccc1Nc1nc2ccccc2[nH]1 | -0.5 | -17 | -6% | -6 | 7
NC(=O)COC(=O)/C=C/c1ccc(S(=O)(=O)N2CCCCCC2)cc1 | -1.4 | . | 1% | 8 | 39
Fc1ccc(C2NCCc3[nH]cnc32)cc1 (stereo not drawn) | 3.1 | -42 | -10% | 0 | 2

All compounds of this part, from the first entry:
SMILES | RecA intein inh | YopH inh | Mtb H37Rv | Arbovirus inh | Mtb bLac sens | others
Cc1nc(NCC2CC2)c2nnn(Cc3ccccc3)c2n1 | 0.7 | . | -1% | -8 | -5
Cc1csc(SCc2ccc(C(=O)O)cc2)n1 | -0.5 | -6 | 3% | -2 | -13
CCOc1ccccc1Nc1nc2ccccc2[nH]1 | -0.5 | -17 | -6% | -6 | 7
NC(=O)COC(=O)/C=C/c1ccc(S(=O)(=O)N2CCCCCC2)cc1 | -1.4 | . | 1% | 8 | 39
Fc1ccc(C2NCCc3[nH]cnc32)cc1 (stereo not drawn) | 3.1 | -42 | -10% | 0 | 2
CCn1ncc(Br)c1C(=O)Nc1sc2c(c1C(=O)OC)CCC2 | 1.0 | 10 | 4% | . | 11
Nc1nc(SCC(=O)N2CCCc3ccccc32)[nH]c(=O)c1-c1ccccc1 | -0.2 | -7 | 6% | 1 | 4
CCN1CCN(C(=O)c2ccc(Sc3ccccc3Cl)c([N+](=O)[O-])c2)CC1 | -1.7 | -12 | 1% | -13 | 0
COc1ccc(C(=O)N/C(=C/c2cccnc2)C(=O)Nc2cccc(C(C)=O)c2)cc1OC | 0.5 | . | . | . | -6
O=C(CSCc1ccc(Cl)cc1)NN=C1CCCCCC1 | -0.9 | -25 | ? | 2 | 80
O=C(O)C1CCC(CNS(=O)(=O)c2ccccc2)CC1 (stereo not drawn) | -2.4 | . | . | . | 4
Cn1nc(C(=O)Nc2sccc2C(N)=O)ccc1=O | -2.5 | -26 | -2% | -2 | 4
Cc1cc(C)nc(N2CCN(c3nnnn3-c3ccccc3)CC2)n1 | -1.7 | 0 | 4% | 0 | -3
CN(C)C(=O)N1CCCC(C(=O)NCCc2ccccc2)C1 (stereo not drawn) | -0.9 | -13 | -5% | 2 | -3
COc1ccc(S(=O)(=O)N2CCC(C(=O)N[C@H](C(=O)NCc3ccco3)C(C)C)CC2)cc1 | -1.6 | . | . | . | 5
COc1ccc(N2CC(C(=O)N[C@H](C(=O)NC3CCCCC3)C(C)C)CC2=O)cc1 (stereo partly drawn) | 1.8 | . | . | . | 2
O=C(NNC(=O)C1CCN(Cc2ccccc2)CC1)c1cccs1 | -1.3 | . | 5% | 0 | 4
c1ccc(-c2nnc(SCc3nc4ccccc4[nH]3)n2Cc2ccco2)cc1 | 1.5 | -132 | 7% | 3 | 3
CCCCn1c(N)c(N(CCOC)C(=O)c2cc(CC)c(C)s2)c(=O)[nH]c1=O | -3.2 | . | . | . | 8
Cc1cc2oc(=O)cc(CSc3nnc(-c4cccs4)o3)c2cc1C(C)C | 8.8 | -16 | 7% | 4 | .
Cc1cc(-c2n[nH]c(=S)n2/N=C/C=C/c2ccco2)n[nH]1 | 4.6 | . | -2% | . | -2
CC(C)NC(=S)N1CCN(c2ncccn2)CC1 | -9.9 | -23 | -6% | 2 | 3
CCN(CC(=O)Nc1cc(Cl)ccc1OC)CC(=O)NC1CCS(=O)(=O)C1 (stereo not drawn) | -1.0 | . | . | . | -11
Cc1onc(-c2ccccc2)c1C(=O)N1CCC(C)CC1 | 3.3 | -25 | -6% | -8 | -6
CC1CCCCN1C(=O)COC(=O)/C=C/c1ccc2ccccc2n1 (stereo not drawn) | 1.2 | . | 0.81µM* | 7 | 100
CC(OC(=O)c1cccc(N2C(=O)c3ccccc3C2=O)c1)C(=O)Nc1ccc(N(C)C)cc1 (stereo not drawn) | -0.5 | -22 | -10% | 4 | -2
CCc1ccc(-c2ccc(SCC(=O)NCC3CCCO3)nn2)cc1 (stereo not drawn) | 1.2 | . | -2% | -2 | -7
C#CCOc1nc2c(c(=O)n(C)c(=O)n2C)n1Cc1ccccc1 | 0.7 | . | -3% | . | -7
COc1cc(C2NCc3ccccc3-n3cccc32)ccc1O (stereo not drawn) | 3.1 | 1 | 3% | 10 | -19
Cc1ccc2cccc(OCC(=O)N3CC(C)CC(C)C3)c2n1 (stereo not drawn) | 0.5 | . | 5% | 12 | -3
Cc1ccc(CNC(=O)CCc2ccc(S(=O)(=O)NCC(C)C)cc2)cc1 | 5.5 | . | -12% | 0 | 3
Cc1oc(-c2ccc(Cl)cc2)nc1CN1CCCC(C(=O)N2CCN(C(=O)c3ccco3)CC2)C1 (stereo not drawn) | -0.6 | . | -11% | 1 | 0 | Arbovirus inh repeat=2
C[C@H](NC(=O)NCc1ccc(F)cc1)C(=O)O | -0.1 | -30 | 2% | 2 | 5
C=CCN1C(=O)C(Cc2ccccc2Cl)SC1=Nc1ccc(C(=O)O)cc1 (stereo not drawn) | 2.5 | . | -2% | . | -12
COc1ccccc1CNC(=O)N/C=C/c1ccc(Cl)cc1 | 5.3 | . | -5% | -15 | -1
CN(c1cccc(NC(=O)c2ccc(C(C)(C)C)cc2)c1)S(C)(=O)=O | 1.5 | . | 0% | -27 | 0
CC(=O)CC(=O)Nc1ccc(C(N)=O)cc1 | -1.0 | . | -1% | -2 | 2
CN1C(=O)/C(=N/OC(=O)c2ccccc2Br)c2ccccc21 | 18 | . | 4% | 2 | -1
Cc1ccc(C(=O)NC(=S)Nc2ccccc2C(F)(F)F)cc1C | -0.7 | -34 | 18% | 2 | 4
COc1ccc(-n2c(CCc3ccccc3)nnc2SCC(=O)NCc2ccccc2)cc1 | -1.3 | -1 | -6% | -10 | -6
C=CCn1c(CCC(=O)Nc2ccc(C)c(Cl)c2)nnc1SCC(=O)Nc1ccccc1C | 1.4 | -33 | 0% | -18 | 5
CCCc1cc(=O)n2[nH]c(NCc3cccs3)nc2n1 | 1.2 | -36 | -5% | 3 | ?
O=[N+]([O-])c1ccc2cn[nH]c2c1 | 1.0 | -58 | 1% | 21 | 3
Cc1c(NC(=O)CN2c3cccc4cccc(c34)S2(=O)=O)c(=O)n(-c2ccccc2)n1C | 0.6 | 4 | -9% | -5 | -2
S=C1SCN(Cc2cccnc2)CN1Cc1ccccc1 | -3.1 | . | 55% | -6 | 90
CCOc1ccc(CC(=O)C2=C(N3CCOCC3)CC(C)(C)CC2=O)cc1OCC | -5.9 | . | -6% | 1 | -7
Cn1c(=O)c2ncn(CC(=O)O)c2n(C)c1=O | -2.5 | . | -3% | . | -2
CCCCNC(=S)N(C)N=C1CCC(c2ccccc2)CC1 (stereo not drawn) | 6.1 | . | -7% | -6 | -3
Cc1cc(=O)n2cccc(O)c2n1 | -69 | . | ? | 3 | -2
COc1ccc(-n2nc3cc(C)c(NC(C)=O)cc3n2)cc1 | . | . | -5% | 3 | 4
CN1CCN(c2nc(N)cc(=O)[nH]2)CC1 | -1.0 | . | -3% | . | -3
CC(C)C(=O)NC(c1ccccc1)c1cc([N+](=O)[O-])c2cccnc2c1O (stereo not drawn) | -1.8 | -19 | -8% | -26 | 2
CN(c1ccc(OCC(=O)O)cc1)S(=O)(=O)c1ccc2ccccc2c1 | 1.4 | . | . | . | -2
COc1ccc(OCC(=O)NNC(=O)c2cccs2)cc1 | -1.2 | -21 | 5% | 1 | 17
CCC(CC)n1[nH]c(=O)cc1N | -0.3 | -6 | 0% | -2 | -2
Cn1cc(CN2CCCC(C(=O)Nc3ccc(-c4cccc(F)c4)cc3)C2)cn1 (stereo not drawn) | 3.1 | . | . | . | 2
CC(C)(O)C#Cc1ccc(C(=O)NCc2ccccc2)s1 | 0.7 | -18 | -3% | . | 6
Cc1cc(C(=O)Nc2c(C)n(C)n(-c3ccccc3)c2=O)c2ccccc2n1 | 1.3 | 10 | -4% | 2 | -12
CCOc1ccc(C(=O)NC2CC(C)(C)NC(C)(C)C2)cc1 | -0.1 | . | . | . | -3
CC1CCN(C(=O)COc2ccccc2F)CC1 | 1.0 | -17 | -11% | 2 | -1

(list continues)
SMILES | RecA intein inh | YopH inh | Mtb H37Rv | Arbovirus inh | Mtb bLac sens | others
COc1ccc(C)cc1Cn1c(S(C)(=O)=O)nc2ccccc21 | 7.3 | 13 | 6% | -3 | 5
O=C(Nc1ccccc1Cl)C1CCCN(S(=O)(=O)c2ccc(-n3cnnn3)cc2)C1 (stereo not drawn) | -3.0 | . | . | . | 5
Cc1c(C(=O)N2CCOCC2)c(S(=O)(=O)Nc2ccccc2)c(C)n1C | -0.5 | . | . | . | -1
CCCCNc1nc(N)ncc1[N+](=O)[O-] | 0.3 | . | -2% | . | -4
CC(=O)ON1C(C)(C)Cc2noc(N)c2C1(C)C | -3.2 | -1 | -2% | 4 | -8
CCc1cccc(C)c1NC(=S)N1CCCCC1c1cccnc1 (stereo not drawn) | -7.1 | . | 1% | . | -2
COc1cccc(C2C(C#N)=C(N)N(c3ncn[nH]3)C3=C2C(=O)CCC3)c1 (stereo not drawn) | -2.1 | -25 | -3% | 3 | -3
CS(=O)(=O)N1Cc2ccccc2CC1C(=O)OCC(=O)Nc1ccc2ccccc2c1 (stereo not drawn) | 1.6 | 3 | 3% | 6 | 28
CC(C)(C)c1ccc(C(=O)NCC(=O)OCC(=O)Nc2ccccc2[N+](=O)[O-])cc1 | . | -9 | -1% | 4 | -5
COc1cc(/C=C(\C#N)C(=O)NCC2CCCO2)ccc1OCC(N)=O (stereo not drawn) | -2.6 | . | -3% | -5 | -6
COc1ccc(/C=C/C(=O)N(CC(C)C)C2CCS(=O)(=O)C2)cc1 (stereo not drawn) | 1.6 | . | . | . | -8
Nc1nc(SCC(=O)Nc2ccc(C(F)(F)F)cc2)[nH]c(=O)c1NC(=O)c1ccc(F)c(F)c1 | -1.1 | . | . | . | -5
Cc1ccccc1C(=O)Nc1ccccc1Sc1ccccc1 | 20 | -32 | -1% | -3 | 38
O=C(c1ccc(S(=O)(=O)Nc2ccc(F)cc2)cc1)N1CCN(C(=O)c2ccco2)CC1 | . | -21 | -12% | 8 | 2
CN(C)c1ccsc1C(=O)NNS(=O)(=O)c1ccc(Cl)cc1 | -6.3 | . | . | . | 9
COc1ccc(CCN2CCCC(CN(C)C(=O)c3cc(C)oc3C)C2)cc1 (stereo not drawn) | 1.7 | . | . | . | ?
CC1CN(C(=O)c2ccncc2)CC(C)O1 (stereo not drawn) | -1.1 | -29 | 1% | -1 | -2
COc1ccc(CN2CCCC2C(=O)Nc2ccc(OC)c(OC)c2)cc1OC (stereo not drawn) | 0.3 | -30 | -9% | 17 | 4 | Arbovirus inh repeat=8
NC(=O)C1CCN(C(=O)CCCCCn2c(=O)[nH]c3ccsc3c2=O)CC1 | 0.8 | -26 | -6% | 2 | -8 | Arbovirus inh repeat=-2
CCOc1cccc(=NC2CCCCC2)c2c(C)n(C)c(C)c12 | 1.6 | . | 2% | . | 14

Structural class: the entries above containing a CF3 group.
SMILES | RecA intein inh | YopH inh | Mtb H37Rv | Arbovirus inh | Mtb bLac sens | others
Cc1ccc(C(=O)NC(=S)Nc2ccccc2C(F)(F)F)cc1C | -0.7 | -34 | 18% | 2 | 4
Nc1nc(SCC(=O)Nc2ccc(C(F)(F)F)cc2)[nH]c(=O)c1NC(=O)c1ccc(F)c(F)c1 | -1.1 | . | . | . | -5

(more compounds)
SMILES | RecA intein inh | YopH inh | Mtb H37Rv | Arbovirus inh | Mtb bLac sens | others
NS(=O)(=O)c1cccc(NC(=O)COC(=O)CCc2ccccc2)c1 | -1.4 | . | . | . | -9
Cc1ccccc1NC(=O)/C=C/c1cccc(C(F)(F)F)c1 | 6.4 | -29 | 4% | 1 | -4
O=C1NC(c2cn(-c3ccccc3)nc2-c2cccs2)C(C(=O)c2cccnc2)C(O)(C(F)(F)F)N1 (stereo not drawn) | 1.5 | -24 | -3% | -3 | 8
Cc1ccc(C(=O)NNC(=O)C2CCN(Cc3ccc(Cl)c(Cl)c3)CC2)cc1 | -0.2 | 1 | -2% | -8 | -4
c1cn2cc(-c3ccc4c(c3)OCO4)nc2s1 | -6.2 | -10 | -2% | -10 | 3 | Arbovirus inh repeat=-9
COc1cc(NC(=O)C/C(C)=N/NC(=O)c2ccccn2)c(OC)cc1Cl | 5.4 | . | . | . | 99
O=C(NCCCN1CCOCC1)c1cc2nc(-c3ccco3)cc(C(F)(F)F)n2n1 | -34 | . | . | . | -2
